# Screening data (PubChem BioAssay)
# FGF22 binding – shifts melting point of recombinant human FGF22. Q9HCT0. recombinant FGF22 thermal shift, SYPRO orange fluorescence; percent of sucrose octasulfate shift, DMSO zero. calls only at 9.99 µM. 1.5% of 340,000 active. AID 651658;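 active = melting point raised past a set limit in the mean and every replicate; three in four hits are not shown here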
# Target sequence (Q9HCT0 whole entry, looked up): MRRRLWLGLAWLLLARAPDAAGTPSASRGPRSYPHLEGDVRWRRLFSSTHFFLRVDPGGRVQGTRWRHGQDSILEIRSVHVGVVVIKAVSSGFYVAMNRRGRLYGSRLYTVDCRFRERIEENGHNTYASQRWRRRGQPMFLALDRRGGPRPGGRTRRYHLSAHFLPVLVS
# AF4-AF9 inh – inhibitors of human MLL-AF4/AF9 interaction; 0.47% of 350,000 active; AlphaScreen, biotin-AF4 peptide binding to FLAG-AF9; P42568; inhibition, % at 10 µM;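 active = every replicate reaching a set inhibition limit, whatever the replicate mean, cut at about 25% in these data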;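 also: 0% = plate neutral control median and 100% = total signal loss; the record names both 10 and 1 µM as test concentration; the first replicate is given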
# Target sequence (P42568 whole entry, looked up): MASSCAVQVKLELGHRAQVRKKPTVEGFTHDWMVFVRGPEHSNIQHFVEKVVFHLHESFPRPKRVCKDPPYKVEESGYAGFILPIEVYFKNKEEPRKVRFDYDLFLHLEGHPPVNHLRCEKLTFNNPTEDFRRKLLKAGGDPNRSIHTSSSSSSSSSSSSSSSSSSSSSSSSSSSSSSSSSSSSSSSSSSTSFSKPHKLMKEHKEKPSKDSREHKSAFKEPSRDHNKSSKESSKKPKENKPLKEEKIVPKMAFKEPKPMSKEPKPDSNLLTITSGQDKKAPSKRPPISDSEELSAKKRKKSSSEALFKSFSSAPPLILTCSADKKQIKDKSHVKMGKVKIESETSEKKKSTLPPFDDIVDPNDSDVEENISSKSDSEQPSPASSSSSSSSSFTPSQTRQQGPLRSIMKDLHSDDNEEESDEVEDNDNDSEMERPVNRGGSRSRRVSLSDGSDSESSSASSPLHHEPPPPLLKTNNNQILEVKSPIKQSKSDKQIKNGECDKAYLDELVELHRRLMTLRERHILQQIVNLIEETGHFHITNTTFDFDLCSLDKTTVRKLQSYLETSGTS
# Starred values were filed as active, the others as inactive; i = inactive. These rows are one share of the data (hit frequency here may not be typical).
SMILES,FGF22 binding,AF4-AF9 inh
COc1ccc(NC(=O)Nc2ccc3c(c2)C(=O)N([C@@H](C)CO)C[C@@H](C)[C@@H](CN(C)Cc2ccc(C(F)(F)F)cc2)OCCCC[C@H](C)O3)cc1,i,-0.6
COCC(=O)Nc1ccc2c(c1)[C@@H]1C[C@H](CC(=O)NCCN3CCCCC3)O[C@H](CO)[C@@H]1O2,i,-8.2
N#C[C@H]1[C@@H](c2ccc(C#Cc3ccccc3F)cc2)[C@H](CO)N1C(=O)C1CC1,i,-2.1
N#C[C@@H]1[C@H](c2ccc(C#CCC3CCCC3)cc2)[C@@H](CO)N1C(=O)c1ccccn1,i,-1.1
C[C@@H]1CN([C@@H](C)CO)C(=O)c2cc(NC(=O)CCN3CCOCC3)ccc2O[C@@H]1CN(C)S(=O)(=O)c1ccccc1,i,0.1
C[C@@H]1CN([C@@H](C)CO)C(=O)c2cc(NC(=O)Cc3cn(C)c4ccccc34)ccc2O[C@H]1CN(C)Cc1ccc(Cl)c(Cl)c1,i,-0.4
Cc1noc(C)c1NC(=O)N(C)C[C@H]1Oc2ccc(NC(=O)Cc3cn(C)c4ccccc34)cc2CC(=O)N([C@@H](C)CO)C[C@H]1C,i,-0.2
COCC(=O)N(C)C[C@@H]1Oc2ncc(C#Cc3ccccc3)cc2C(=O)N([C@H](C)CO)C[C@H]1C,i,-1.6
C[C@H]1CCCCO[C@@H](CN(C)C(=O)NC2CCCCC2)[C@@H](C)CN([C@@H](C)CO)C(=O)c2cc(NC(=O)Nc3ccc(C(F)(F)F)cc3)ccc2O1,i,-1.0
COc1ccc(C(=O)Nc2ccc3c(c2)C(=O)N(C)C[C@H](OC)[C@@H](C)CN(C(C)=O)[C@@H](C)CO3)cc1,i,-1.2
C[C@@H]1CN([C@H](C)CO)C(=O)c2ccccc2-c2ccccc2CO[C@H]1CN(C)S(=O)(=O)c1ccc(F)cc1,i,-0.9
C[C@H](CO)N1C[C@H](C)[C@@H](CN(C)Cc2ccc(-c3ccccc3)cc2)Oc2ccc(NC(=O)Cn3cnnn3)cc2CC1=O,i,6.0
O=C(O)C[C@@H]1C[C@@H]2c3cc(NC(=O)c4ccc5c(c4)OCO5)ccc3O[C@@H]2[C@@H](CO)O1,i,-1.9
COCC(=O)N1CCCCN2[C@H](CO)[C@@H](c3ccc(-c4ccc(OC)cc4)cc3)[C@@H]2C1,i,-5.0
O=C(Nc1ccc(F)cc1)N[C@@H]1CC[C@H](CC(=O)N2CCCCC2)O[C@H]1CO,i,-12
COCC(=O)N1[C@H](CO)[C@@H](c2ccccc2)C12CN(C(=O)c1cccnc1)C2,i,-2.9
COc1ccc(CN(C)C[C@@H]2OCCCC[C@@H](C)Oc3ccc(NS(=O)(=O)c4ccc(Cl)cc4)cc3C(=O)N([C@@H](C)CO)C[C@@H]2C)cc1,i,1.1
C[C@@H]1CN([C@@H](C)CO)C(=O)Cc2cc(NC(=O)NC3CCCCC3)ccc2O[C@@H]1CN(C)S(C)(=O)=O,i,-5.8
C[C@@H]1CCCCO[C@H](CN(C)Cc2ccc(Cl)c(Cl)c2)[C@@H](C)CN([C@@H](C)CO)C(=O)c2cc(NC(=O)Nc3ccc(C(F)(F)F)cc3)ccc2O1,i,-2.3
C[C@H](CO)N1C[C@H](C)[C@@H](CN(C)C(=O)[C@H](Cc2ccccc2)N(C)C)OCc2ccccc2-c2c(n(C)c3ccccc23)C1=O,i,37*
C[C@H]1CN([C@@H](C)CO)C(=O)c2ccccc2-c2ccccc2CO[C@H]1CN(C)Cc1ccc2c(c1)OCCN2C,i,34*
C[C@@H]1CCCCO[C@@H](CN(C)C(=O)Nc2cccc3ccccc23)[C@@H](C)CN([C@H](C)CO)C(=O)c2cc(NS(=O)(=O)c3cccs3)ccc2O1,i,1.9
CCCCc1c(-c2ccccc2OC)ncn1C(C)c1ccccc1 (stereo not given),i,12
COc1ccc(NC(=O)Nc2ccc3c(c2)C(=O)N([C@H](C)CO)C[C@H](C)[C@H](CN(C)S(=O)(=O)c2ccc(F)cc2)OCCCC[C@@H](C)O3)cc1,i,-1.1
COc1ccc(S(=O)(=O)N(C)C[C@@H]2OCCCC[C@H](C)Oc3ccc(NS(=O)(=O)c4c(C)noc4C)cc3C(=O)N([C@H](C)CO)C[C@H]2C)cc1,i,1.0

# Whole records from above:
# COCC(=O)N1CCCCN2[C@H](CO)[C@@H](c3ccc(-c4ccc(OC)cc4)cc3)[C@@H]2C1 is listed as FGF22 binding: i; AF4-AF9 inh: -5.0
# COc1ccc(NC(=O)Nc2ccc3c(c2)C(=O)N([C@@H](C)CO)C[C@@H](C)[C@@H](CN(C)Cc2ccc(C(F)(F)F)cc2)OCCCC[C@H](C)O3)cc1 is listed as FGF22 binding: i; AF4-AF9 inh: -0.6

# Continuation.
SMILES,FGF22 binding,AF4-AF9 inh
O=C(Nc1cccc(F)c1)N[C@@H]1CC[C@@H](CCNS(=O)(=O)c2cccc(Cl)c2)O[C@H]1CO,i,2.7
CCS(=O)(=O)Nc1ccc2c(c1)C(=O)N(C)C[C@@H](OC)[C@H](C)CN(CC1CCCCC1)[C@@H](C)CO2,i,4.6
CCC(=O)Nc1ccc2c(c1)OC[C@H](C)N(C(=O)C1CC1)C[C@@H](C)[C@H](OC)CN(C)C2=O,i,-0.7
Cc1cccc(S(=O)(=O)N2CCCCN3[C@H](C2)[C@@H](c2ccc(-c4cccnc4)cc2)[C@@H]3CO)c1,i,-9.0
C[C@@H]1CN([C@@H](C)CO)C(=O)c2cccc(NC(=O)CCCCCC(=O)Nc3ccccc3N)c2O[C@H]1CN(C)C(=O)Nc1ccc2c(c1)OCO2,i,2.9
COc1ccc(CN(C)C[C@@H]2Oc3c(NC(=O)Nc4cccc5ccccc45)cccc3C(=O)N([C@H](C)CO)C[C@@H]2C)cc1,i,10
COc1ccc(NC(=O)N(C)C[C@@H]2Oc3ccc(NC(=O)NC(C)C)cc3C(=O)N([C@H](C)CO)C[C@@H]2C)cc1,i,-3.3
C[C@@H]1CN([C@H](C)CO)C(=O)c2cccc(N(C)C)c2O[C@H]1CN(C)Cc1ccc(-c2ccccc2)cc1,i,4.4
Cc1noc(C)c1NC(=O)Nc1ccc2c(c1)C(=O)N([C@H](C)CO)C[C@@H](C)[C@@H](CN(C)Cc1ccc(Oc3ccccc3)cc1)O2,i,10
C[C@@H]1CCCCO[C@H](CN(C)S(C)(=O)=O)[C@@H](C)CN([C@H](C)CO)C(=O)c2cc(NC(=O)Nc3ccc4c(c3)OCO4)ccc2O1,i,-3.3
C/C=C/c1ccc2c(c1)O[C@@H](CN(C)C(=O)C1CCOCC1)[C@H](C)CN([C@@H](C)CO)S2(=O)=O,i,-1.7
COCC#Cc1cnc2c(c1)C(=O)N([C@H](C)CO)C[C@H](C)[C@H](CN(C)S(=O)(=O)c1ccccc1)O2,i,-2.4
O=C(N[C@H]1CC[C@@H](CC(=O)N2CCc3ccccc3C2)O[C@H]1CO)C1CCOCC1,i,-21
COCC#Cc1ccc2c(c1)O[C@@H](CN(C)C)[C@@H](C)CN([C@@H](C)CO)S2(=O)=O,i,-1.4
C[C@H]1CN([C@@H](C)CO)C(=O)c2cc(C#CC3CCCC3)cnc2O[C@H]1CN(C)Cc1ccncc1,i,1.0
CCC(=O)N(C)C[C@H]1Oc2ncc(/C=C/c3ccccc3)cc2C(=O)N([C@H](C)CO)C[C@H]1C,i,-0.5
C[C@@H]1CN([C@@H](C)CO)C(=O)c2cccc(NS(=O)(=O)c3ccc(Cl)cc3)c2O[C@H]1CN(C)C(=O)Nc1ccc2c(c1)OCO2,i,-2.0
CN(C)C(=O)[C@H]1[C@H](CO)[C@H]2Cn3c(cccc3=O)[C@H]2N1CCc1ccccc1,i,-0.4
O=C(C[C@@H]1CC[C@H](NS(=O)(=O)c2ccccc2)[C@@H](CO)O1)NCc1ccncn1,i,-20
O=C(CC1CC1)Nc1ccc2c(c1)[C@@H]1C[C@@H](CC(=O)N3CCCCC3)O[C@@H](CO)[C@@H]1O2,i,-1.4
C[C@@H]1CN([C@@H](C)CO)C(=O)c2cc(NC(=O)C3CC3)ccc2O[C@@H]1CN(C)Cc1ccc(C(F)(F)F)cc1,i,-0.3
CC(=O)N(C)C[C@@H]1Oc2cc(-c3ccc(C)cc3)ccc2S(=O)(=O)N([C@@H](C)CO)C[C@@H]1C,i,-3.0
C[C@H](CO)N1C[C@H](C)[C@@H](CN(C)S(=O)(=O)c2ccc(Cl)cc2)Oc2ccc(NC(=O)Cc3cn(C)c4ccccc34)cc2C1=O,i,-12
C[C@@H]1CN([C@H](C)CO)C(=O)c2cc(NC(=O)C3CC3)ccc2O[C@@H]1CN(C)Cc1ccccc1,i,-0.9
COCCOC(=O)N1C(=O)[C@@]2(c3cc(C#CCC(C(=O)OC)C(=O)OC)ccc31)[C@H](c1ccccc1OCCO)N1[C@H](c3ccccc3)[C@H](c3ccccc3)OC(=O)[C@H]1[C@@H]2C(=O)Nc1nc2ccccc2s1,i,-0.8

# (further entries)
SMILES,FGF22 binding,AF4-AF9 inh
CC(C)NC(=O)N(C)C[C@@H]1OCc2ccccc2-c2c(n(C)c3ccccc23)C(=O)N([C@H](C)CO)C[C@@H]1C,i,-3.7
CN(C)C(=O)c1cccc(-c2ccc([C@H]3[C@@H](CO)N4C(=O)CN(C(=O)C5CCCC5)C[C@@H]34)cc2)c1,i,4.3
O=C(C[C@H]1CC[C@H](NC(=O)Cc2ccccn2)[C@H](CO)O1)NCCc1ccccc1,i,-3.5
O=C(C[C@@H]1C[C@H]2c3cc(NC(=O)C4CCOCC4)ccc3O[C@H]2[C@@H](CO)O1)NCc1ccc2c(c1)OCO2,i,0.1
C[C@@H]1CCCCO[C@H](CN(C)S(=O)(=O)c2cn(C)cn2)[C@H](C)CN([C@H](C)CO)C(=O)c2cc(NS(=O)(=O)c3ccc(Cl)cc3)ccc2O1,i,-9.3
N#C[C@H]1[C@H](c2ccc(-c3ccccc3F)cc2)[C@H](CO)N1C(=O)C1CCC1,i,-2.1
C[C@@H]1CCCCO[C@H](CN(C)S(C)(=O)=O)[C@@H](C)CN([C@H](C)CO)C(=O)c2cc(NC(=O)Nc3cccc4ccccc34)ccc2O1,i,-1.2
COCC(=O)Nc1ccc2c(c1)[C@@H]1C[C@@H](CC(=O)NCC3CC3)O[C@@H](CO)[C@@H]1O2,i,-0.5
C[C@@H]1CN([C@H](C)CO)C(=O)Cc2cc(NS(=O)(=O)c3cccs3)ccc2O[C@@H]1CN(C)CC1CCCCC1,i,0.8
O=C(C[C@@H]1CC[C@H]2[C@@H](COC[C@H](O)CN2Cc2nccs2)O1)NCc1ccc(Oc2ccccc2)cc1,i,1.7
CCC(=O)N(C)C[C@@H]1Oc2ncc(C#Cc3ccncc3)cc2C(=O)N([C@H](C)CO)C[C@H]1C,i,-5.9
C[C@@H]1CN([C@H](C)CO)C(=O)c2cccc(NC(=O)CCCCCC(=O)Nc3ccccc3N)c2O[C@H]1CN(C)C(=O)Nc1ccc2c(c1)OCO2,i,6.0
COc1cccc(C#Cc2ccc3c(c2)O[C@H](CN(C)C(=O)CN2CCOCC2)[C@@H](C)CN([C@H](C)CO)S3(=O)=O)c1,i,-1.3
CN1C(=O)c2cc(NS(=O)(=O)c3ccccc3F)ccc2OC[C@H]2O[C@@H](CC(=O)NC3Cc4ccccc4C3)CC[C@@H]21,i,-0.7
C[C@@H]1CN([C@H](C)CO)C(=O)c2cc(Br)cnc2O[C@H]1CN(C)C(=O)c1cccnc1,i,-1.6
COCC#Cc1ccc2c(c1)O[C@@H](CN(C)S(=O)(=O)c1ccc(OC)cc1)[C@@H](C)CN([C@@H](C)CO)S2(=O)=O,i,-3.4
C[C@H]1CN([C@@H](C)CO)C(=O)Cc2cc(NC(=O)Nc3ccccc3)ccc2O[C@@H]1CN(C)S(=O)(=O)c1ccc(Cl)cc1,i,-4.1
C[C@H]1CN([C@@H](C)CO)C(=O)Cc2cc(NC(=O)C3CC3)ccc2O[C@H]1CN(C)S(=O)(=O)c1ccc(F)cc1,i,-1.8
O=C(CN1CCOCC1)NCC[C@@H]1CC[C@H](NC(=O)Nc2ccc(Cl)cc2)[C@H](CO)O1,i,-0.9
COC(=O)C[C@H]1CC[C@@H]2[C@H](COC[C@H](O)CN2C(=O)Nc2cccc(F)c2)O1,i,2.2
COCCNC(=O)C[C@H]1CC[C@H]2[C@@H](COc3ccc(NS(=O)(=O)c4ccc(Cl)cc4)cc3C(=O)N2C)O1,i,-2.1
CCCNC(=O)N1CC(=O)N2[C@H](C1)[C@H](c1ccc(-c3cccc(C)c3)cc1)[C@@H]2CO,i,-11
Cc1noc(C)c1S(=O)(=O)N(C)C[C@H]1OCCCC[C@@H](C)Oc2ccc(NC(=O)C3CCCCC3)cc2C(=O)N([C@H](C)CO)C[C@H]1C,i,-0.2
Cc1noc(C)c1NC(=O)Nc1ccc2c(c1)CC(=O)N([C@@H](C)CO)C[C@H](C)[C@@H](CN(C)Cc1ccncc1)O2,i,-1.5

# Printed as active in AF4-AF9 inh, of those listed so far:
SMILES,FGF22 binding,AF4-AF9 inh
C[C@H](CO)N1C[C@H](C)[C@@H](CN(C)C(=O)[C@H](Cc2ccccc2)N(C)C)OCc2ccccc2-c2c(n(C)c3ccccc23)C1=O,i,37*
C[C@H]1CN([C@@H](C)CO)C(=O)c2ccccc2-c2ccccc2CO[C@H]1CN(C)Cc1ccc2c(c1)OCCN2C,i,34*

# Structural class: the compounds so far with a thiophene ring, fused or not
SMILES,FGF22 binding,AF4-AF9 inh
C[C@@H]1CCCCO[C@@H](CN(C)C(=O)Nc2cccc3ccccc23)[C@@H](C)CN([C@H](C)CO)C(=O)c2cc(NS(=O)(=O)c3cccs3)ccc2O1,i,1.9
C[C@@H]1CN([C@H](C)CO)C(=O)Cc2cc(NS(=O)(=O)c3cccs3)ccc2O[C@@H]1CN(C)CC1CCCCC1,i,0.8
